# NPYLR7 agonist: activates Aedes aegypti NPYLR7 receptor. HEK293T NPYLR7/Galpha15, GCaMP6s calcium fluorescence. activation, % at 10 µM. 270,000 tested, 0.15% active. AID 1259423; in the data active = activation above about 40%;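 note: 0% = vehicle and 100% = reference agonist at the receptor; some compounds past the cut are filed as inactive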
# NPYLR7 agonist max-min: recorded beside NPYLR7 agonist, whose call it bears; activation, %; measured here: Max-Min RFU normalised activation; some inactives read as strong as hits;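 span of the calcium signal over five minutes; 0% = vehicle and 100% = native peptide agonist; compound fluorescence can raise it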
# * hit, by the source's call; & = joins results of further samples. An excerpt; count on the stated rates, not on these rows.
molecule	NPYLR7 agonist	NPYLR7 agonist max-min
CCOC(=O)C1(C/C=C/c2ccccc2)CCCN(C(=O)C2CCOCC2)C1 (configuration not stated)	3	-1
COc1ccccc1C(=O)Nc1ccc(=O)n2c1[C@@H]1C[C@@H](CN(C3CCN(C(C)=O)CC3)C1)C2	-8	-17
CC(C)(C)OCc1cccc(CN)c1	20	7
O=c1nc(SCc2cccc3ccccc23)c2c([nH]1)CCC2	-2	-6
CN(CCc1ccccn1)c1ccc(S(=O)(=O)N2CCCC2)cc1[N+](=O)[O-]	-4	-3
CC(=O)N1CCc2cc(NC(C)C(=O)Nc3cccc4ncccc34)ccc21 (configuration not stated)	-2	-1
C=C(C)c1cccc(C(C)(C)NC(=O)N(C)C2CCN(C)CC2)c1	-22	-21
COc1ccc(-n2c(C)c(C)n3c4c(=O)n(C)c(=O)n(C)c4nc23)cc1	1	4
CCCCC(O)CN(Cc1c(C)nn(-c2ccccc2)c1Oc1ccc(OC)cc1)CC1CCCO1 (configuration not stated)	2	3
O=C(CCCN1C(=O)c2cccc3cccc(c23)C1=O)N1CCCCC1	7	6
O=C(NCc1ccccn1)C(C1CCCC1)N1CCN(C(=O)c2ccc(F)cc2)CC1 (configuration not stated)	-9	-3
COCCn1c(-c2ccccn2)nc2cc(NC(C)=O)cc(C(=O)NC3CCCc4ccccc43)c21 (configuration not stated)	23	3
COc1ccc(OC)c(NC(=O)C2(C)CCN2Cc2c(F)cccc2F)c1 (configuration not stated)	8	-1
CCOC(=O)c1[nH]c(C)c(C(=O)OCc2nc(-c3cccs3)no2)c1C	9	6
Cc1cc(C)n(C2CCN(Cc3ccc4ccccc4n3)C2)n1 (configuration not stated)	-9	-6
CCc1ccc(-n2c(C(CC)N(Cc3ccccc3)C(=O)Nc3cccc(Br)c3)nc3ccccc3c2=O)cc1 (configuration not stated)	3	3
Cc1cccc2c(N=NC(=O)COc3c(Cl)cc(Cl)cc3Cl)c(O)[nH]c12	0	-2
CC(C)c1ccc(CC(=O)N2CCC2(C)C(=O)Nc2cc(C(C)(C)C)on2)cc1 (configuration not stated)	-4	-10
CN(C)c1cc(-c2ccccc2)nc(SCc2ccc(C(=O)O)cc2)n1	9	8
CCC1SC(c2ccc(C)cc2)N(CCCNC)C1=O (configuration not stated)	-3	-7
COc1cccc(C(=O)N2CCc3cc(OC)c(OC)cc3C2c2cccc(Cl)c2)c1 (configuration not stated)	11	3
Cc1cc(NC(=O)NNc2ccc(S(=O)(=O)C(F)F)cc2)no1	13	10
COCCN(Cc1nccn1Cc1ccc(C(F)(F)F)cc1)C(=O)C(C)C	6	16
O=c1cc(-c2ccc(F)cc2)ncn1Cc1cccc(C(F)(F)F)c1	-18	-21
COc1ccc(C(=O)N2CCCC2(C)C(=O)NCC(C)C)cc1C(F)(F)F (configuration not stated)	4	0
CC(C)(C)c1ccc(NC(=O)NCc2nnnn2-c2ccc(F)cc2)cc1	0	-2
CC(C)(C)C1CCc2c(C(=O)NNC(=O)CCC(=O)O)csc2C1 (configuration not stated)	2	0
CC(C)CN(Cc1ccsc1)C(=O)C1(C(N)=O)CC1	12	4
CCC(=O)Nc1ccc(OCC(=O)NCc2cn3c(n2)SCC3)cc1	-7	-9
CCOc1ccc(-c2nccn2CC2CCOCC2)cc1	0	-5

# Gathered by group, the entries above containing an NH in an aromatic ring
molecule	NPYLR7 agonist	NPYLR7 agonist max-min
O=c1nc(SCc2cccc3ccccc23)c2c([nH]1)CCC2	-2	-6
CCOC(=O)c1[nH]c(C)c(C(=O)OCc2nc(-c3cccs3)no2)c1C	9	6
Cc1cccc2c(N=NC(=O)COc3c(Cl)cc(Cl)cc3Cl)c(O)[nH]c12	0	-2

# Next part
molecule	NPYLR7 agonist	NPYLR7 agonist max-min
CCOC(=O)C1(Cc2ccccc2C)CCCN(C(=O)c2cc(-c3cccn3C)n[nH]2)C1 (configuration not stated)	11&-8	9&-12
O=C(N[C@@H]1c2ccccc2C2(CCNCC2)[C@H]1O)c1cccc(-n2cccn2)c1	6	3
Cn1ccnc1C(NC(=O)C1CCN(S(=O)(=O)c2ccccc2F)CC1)c1ccccc1F (configuration not stated)	-4	-6
Cc1c(NCc2ccccn2)cccc1C(=O)Nc1cnc2n1CCCC2	-1	-3
O=C(NC1CCOc2ccccc21)c1nn(-c2ccc(F)cc2)c2c1CCCC2 (configuration not stated)	11	8
O=C(CCN1Cc2ccccc2C1=O)NC1CCCc2c1cnn2-c1ccc(F)cc1F (configuration not stated)	-6&0	-7&-4
CC(C)c1ccc(OS(=O)(=O)c2cn(C)c(=O)n(C)c2=O)cc1	0	1
CCOc1ccc(Nc2ncccc2S(=O)(=O)NC)cc1	-8	-10
CCC(CC)C(=O)Nc1cc(-c2cccs2)nn1-c1nc(C)c(C)c(=O)[nH]1	-5	-7
Cc1ccc(S(=O)(=O)N2CCCCC2)cc1NS(=O)(=O)c1c(Cl)cccc1Cl	-2	4
CN(C)c1ccc(C(=O)NNC(=O)c2ccco2)cc1	-7	-11
CCCc1c(C#N)c(N)[nH]c(=S)c1C#N	0	7
O=C(/C=C\c1ccc([N+](=O)[O-])cc1)N(Cc1cccnc1)c1nc2ccc(F)cc2s1	-21	-13
CC(=O)N1CCC2(CC1)OC(=O)C(C)=C2C(=O)NC1CCCC1	4	2
COCC(=O)N1CCN(Cc2ccc(-c3noc(-c4cccc(C(F)(F)F)c4)n3)cc2)CC1	3	-1

# Overlap with the part before: 3 entries, followed by the next part.
molecule	NPYLR7 agonist	NPYLR7 agonist max-min
O=C(/C=C\c1ccc([N+](=O)[O-])cc1)N(Cc1cccnc1)c1nc2ccc(F)cc2s1	-21	-13
CC(=O)N1CCC2(CC1)OC(=O)C(C)=C2C(=O)NC1CCCC1	4	2
COCC(=O)N1CCN(Cc2ccc(-c3noc(-c4cccc(C(F)(F)F)c4)n3)cc2)CC1	3	-1
CC(C)Cn1c(CN2C[C@@H]3CCC[C@H]2C3)cnc1S(=O)(=O)Cc1ccccc1	6	6
CC(C)Cn1c(N)c(C(=O)CCl)c(=O)[nH]c1=O	4	3
COc1ccc(CN2CCN(Cc3nc(-c4ccccc4)cs3)CC2CCO)cc1C (configuration not stated)	0	-3
CCc1cnc(C)nc1N1CCN(Cc2cn[nH]c2-c2ccccc2)CC1	-2	-3
O=C1N[C@H]2CCC[C@@H]1CN(Cc1cc3n(n1)CCNC3)C2	4	3
CCC(CC)C(=O)Nc1c(C)n(C)n(-c2ccccc2)c1=O	-1	-4
Nc1c(C(=O)Nc2cccc(Cl)c2)c2ccccn2c1C(=O)c1ccccc1	-3	-11
CC(C)(C)C(=O)CN1CCc2ccccc2N(CC(O)COCc2ccco2)CCC1=O (configuration not stated)	3	8
O=C(NCCc1ccccn1)c1ccc(-c2ccc3c(c2)OCO3)nc1NCC1CC1	7	-1
N#CC(C#N)C=Nc1sc2c(c1-c1nc3ccccc3[nH]1)CCCC2	-3	9
COc1ccc(-c2cnc(-c3ccc(CNC(=O)c4ccco4)cc3)[nH]2)cc1	15	17
O=C(CCl)Nc1ccc2c(c1)C(=O)c1ccccc1C2=O	2	-2
OC(CN1CC2CCCCC21c1ccccc1)Cn1cccn1 (configuration not stated)	2	1
Oc1ccc(C=Nn2c(-c3ccco3)csc2=Nc2ccc(F)cc2F)c(O)c1	-2	0
COc1ccc(C2=CSC3=NS(=O)(=O)CCN23)cc1	0	-1

# 5 of the compounds above, with two lines to a compound.
# Each structure is followed by: NPYLR7 agonist, NPYLR7 agonist max-min
> CCOc1ccc(Nc2ncccc2S(=O)(=O)NC)cc1
 : -8, -10
> CCC(CC)C(=O)Nc1cc(-c2cccs2)nn1-c1nc(C)c(C)c(=O)[nH]1
 : -5, -7
> Cc1ccc(S(=O)(=O)N2CCCCC2)cc1NS(=O)(=O)c1c(Cl)cccc1Cl
 : -2, 4
> CN(C)c1ccc(C(=O)NNC(=O)c2ccco2)cc1
 : -7, -11
> CCCc1c(C#N)c(N)[nH]c(=S)c1C#N
 : 0, 7

# (continued)
structure | NPYLR7 agonist | NPYLR7 agonist max-min
O=C(CC(c1ccccc1)c1ccccc1)N1CCN(C(=O)C23CC4CC(CC(C4)C2)C3)CC1 | 7 | 10
Cc1cc(C(=O)N(C)C(C)c2ccc(S(C)(=O)=O)cc2)c(C)n1C1CCCCC1 (configuration not stated) | 2 | 0
CCOC(=O)c1c(C)nn(-c2ccc(C(=O)N[C@H](CO)Cc3ccccc3)cc2)c1C | -3 | -10
Cc1ccc(C)c(CSc2c(C(C)C)cnc3c2c(=O)n(C)c(=O)n3C)c1 | 7 | 12
CN(C)CCCNC(=O)c1cc(NC(=O)c2ccc([N+](=O)[O-])cc2Cl)ccc1N1CCCC1 | 12 | 19
N#CC(Cc1ccccc1)NC(=O)CCNC(=O)C12CC3CC(CC(C3)C1)C2 (configuration not stated) | 4 | 2
CC1CC(=O)Nc2ccccc2N1C(=O)CN1CCCc2cccc(F)c21 (configuration not stated) | 0 | -1
Cc1ccc(NC(=O)CSc2ccc3nnc(CCNS(=O)(=O)c4ccccc4)n3n2)cc1 | 1 | -8
COc1ccc(N(C)S(=O)(=O)c2ccc(OC)c(N3CCN(C(=O)/C=C/c4ccccc4Cl)CC3)c2)cc1 | 30 | 19
COC(=O)c1ccc(CSc2nnc(-c3cccc(OC)c3)n2-c2ccc(C)cc2)o1 | 14 | 16
Cc1ccc(Oc2ncccc2CNC(=O)NC2CCCCC2)cn1 | 16 | 8
COc1ccc(-c2n[nH]c(C)c2-c2ccc(OC)c(OC)c2)c(O)c1 | 2 | 2
CCCn1nccc1C(=O)Nc1cc(C(N)=O)ccc1N1CCCC(C)C1 (configuration not stated) | 5 | 3
Cc1c(Br)c(Nc2ccc(Cl)cc2)nn1C | 3 | 1
C=CCn1c(=NC(=O)CN2C(=O)CCC2=O)sc2cc(OCC)ccc21 | -3 | -6
COc1cc(CN2CCOCC2)ccc1OCC(O)CN1CCOCC1 (configuration not stated) | 13 | 6
CCC1CC(C)CN1C(=O)C1=NN(c2cc(C)ccc2C)C(=O)CC1 (configuration not stated) | -2 | -7
CCC(Sc1nc2c(c(=O)n1-c1ccc(Cl)cc1)SCC2)C(=O)OC (configuration not stated) | 1 | 46
COc1ccc(-c2cccc(-c3cccc(NC(=O)c4cccc(Cl)c4)c3)n2)cc1 | 7 | 6
Cc1cc(C)n(C2CCN(Cc3ccc(CN(C)S(C)(=O)=O)o3)C2)n1 (configuration not stated) | -8 | -10
CCN(C(=O)CSc1nnc(-c2ccco2)o1)C1CCS(=O)(=O)C1 (configuration not stated) | 2 | 2
N#Cc1nc2[nH]c(-c3ccccc3)cc(=O)n2c1C#N | 1 | 0
NC(=O)c1ccc(OCc2csc(-c3ccsc3)n2)cc1 | 7 | 4
CC(Oc1cccc(Cl)c1)C(=O)NCC1COC(C)(C)O1 (configuration not stated) | 1 | 0
CN1CCC(N(C)C(=O)/C=C/c2cn(S(=O)(=O)c3cccc4ccccc34)c3ccccc23)CC1 | -11 | -16
COc1ccc(C(=O)NCc2nnc(SCc3cccc(C)c3)n2-c2ccc(Cl)cc2Cl)c(OC)c1 | 10 | 18
CC(/C=N\NC(=O)CNc1n[nH]c(=O)[nH]c1=O)c1ccccc1 (configuration not stated) | 1 | 37
COc1cc(OC)cc(N2CCN(C(=O)C3CCCC3)C(C)C2=O)c1 (configuration not stated) | 12 | 21
Cc1cc(NC(=O)CCCSc2ccc(NC(=O)c3cccs3)nn2)no1 | -5 | -5
CCOc1ccc(-c2nc(C)c(C(=O)NC)s2)cc1OC | -6 | -8
CCOC(=O)N1CCC(NCCSc2ncn[nH]2)CC1 | 9 | -3
COCCc1noc(C2CCCCN2S(=O)(=O)NCc2ccccc2)n1 (configuration not stated) | 8 | 2
COC(=O)[C@@H](Cc1cccnc1)NC(=O)[C@H]1CN(C(=O)Nc2ccccc2)CCN1C(=O)C1CCCCC1 | 14 | 9
Cc1ccc(C=NNc2ncnc3sc(C)c(C)c23)s1 | -12 | -15
Cc1noc(C)c1CNC(=O)CN1CC(C)CN(Cc2ccccc2)c2ccccc21 (configuration not stated) | -1 | -5
O=C(Cn1cnc2sc3c(c2c1=O)CCC3)Nc1ccc2c(c1)OCCO2 | -1 | -1
O=C(c1cn(CC2CCCO2)cc2c(=O)n(-c3ccccc3)nc1-2)N1CCCCCC1 (configuration not stated) | 6 | 5
CCCOC(=O)C1=C(C)NC2=C(C(=O)CC(c3ccc(Cl)cc3)C2)C1c1ccccc1F (configuration not stated) | 2 | 4
Cc1csc(SCC(=O)N2CCC(CCC(=O)Nc3ccccc3)CC2)n1 | 4&12 | -2&5
CCOc1ccc(CC(=O)Nc2ccc3c(c2)C(=O)N(CC)CCO3)cc1 | 4 | -2
COc1ccc(CNS(=O)(=O)c2ccc3c(c2)CCCC3)cc1 | 1 | 1
c1ccc(Oc2ccc(-c3cc(NCCc4ccccn4)n4nccc4n3)cc2)cc1 | -5 | -8
O=C1NC(=O)c2c(N=Cc3c(O)[nH]c(=O)[nH]c3=O)cccc21 | -3 | -8
Cc1cc(-c2ccc(C=C3C(=O)NC(=S)NC3=O)o2)ccc1[N+](=O)[O-] | 1 | -6
COC[C@@H]1CCCN1Cc1cccc(C(=O)Nc2c(C)cnn2C)c1 | 13 | -2
O=C(CNC(=O)c1ccccc1O)N=Nc1c(O)n(Cc2ccccc2)c2ccccc12 | -1 | -7

# Screening results from PubChem.
